Bioassay records: PubChem, National Center for Advancing Translational Sciences (NCATS)
VDR inhibitor – vitamin D3 receptor (human) inhibition; P11473; VDR-SRC2-3 peptide fluorescence polarization, 2 h; Potency, µM, inactives show max response, negative = inhibition, most hits filed as inhibitors; 400,000 tested, 0.93% active; AID 504847; active = well fitted inhibition curve with a large enough effect; inconclusive = small, poorly fitted or top-dose-only effect, or another doubt; inactive = no such curve, though single readings can be large or run the other way; note: series mostly up to about 120 µM
Target sequence (P11473 whole entry, looked up): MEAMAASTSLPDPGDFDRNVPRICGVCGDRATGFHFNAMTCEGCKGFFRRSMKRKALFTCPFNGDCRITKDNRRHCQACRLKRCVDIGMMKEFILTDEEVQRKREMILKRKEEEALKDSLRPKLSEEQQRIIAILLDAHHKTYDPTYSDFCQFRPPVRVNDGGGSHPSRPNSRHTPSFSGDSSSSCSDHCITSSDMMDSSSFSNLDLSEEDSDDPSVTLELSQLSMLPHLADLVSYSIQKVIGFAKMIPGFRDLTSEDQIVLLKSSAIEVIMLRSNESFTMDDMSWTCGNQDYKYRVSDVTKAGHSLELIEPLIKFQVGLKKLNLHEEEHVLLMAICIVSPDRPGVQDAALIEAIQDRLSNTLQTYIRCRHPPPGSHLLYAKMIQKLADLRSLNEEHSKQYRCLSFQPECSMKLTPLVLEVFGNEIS
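Fluorescence polarization assay of small-molecule disruption of VDR binding to coregulator peptide SRC2-3. Compounds and controls pin-transferred, then read after 2 h incubation at ambient room temperature.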
An asterisk follows results filed as active; u = inconclusive; & = joins results of further samples. % is set by controls: 0 for no effect and ±100 for the full control effect; potency is the fitted concentration of half-maximal effect. The list is partial; rates above refer to the full screens.

SMILES | VDR inhibitor
O=C(c1ccc(CS(=O)Cc2ccc(Cl)cc2)o1)N1CCN(c2ccccc2)CC1 (stereo not given) | -7%
Cc1ccc(S(=O)(=O)Nc2ccc3c(c2)nc(CCN2CCOCC2)n3C)cc1 | -5%
CC(C)n1ncc2c(C(=O)NCCOc3ccccc3F)cc(C3CC3)nc21 | -20%
Cc1cc(C)c(NC(=O)Cn2nnc(C(=O)NCc3cccs3)c2N)c(C)c1 | -4%&-10%
O=C(NC1(C(=O)O)CCCC1)C(Cl)Cl | -2%
CCSc1ncc(Cl)c(C(=O)Nc2ccc(S(=O)(=O)N3CCCCC3CC)cc2)n1 (stereo not given) | -1%
COc1cccc(CN(C(=O)COc2ccc(Cl)cc2)C2CCS(=O)(=O)C2)c1 (stereo not given) | -9%
Cc1ccc(NC(=O)CN(C)CC(=O)Nc2cccc(F)c2)cc1[N+](=O)[O-] | -3%
OCCOCCN1CCN(Cc2cccc(Oc3ccccc3)c2)CC1 | -8%
O=S(=O)(c1ccc2c(c1)CCCN2)N1CCCC1 | 7%
CS(=O)(=O)N(CC(=O)N1CCN(Cc2ccccc2)CC1)Cc1ccccc1 | -9%
Cc1ccc(CS/C(Nc2ccccc2C)=C(\C#N)C(=O)NCc2ccco2)c(C)c1 | 11%
CCOC(=O)c1c(C)[nH]c(C(=O)NCC(c2ccco2)N2CCCCC2)c1C (stereo not given) | -2%
COc1ccc(Cn2c(=O)[nH]c3cc(C(=O)NCCc4ccc(S(N)(=O)=O)cc4)ccc3c2=O)cc1 | 9%
CCn1cc(S(=O)(=O)c2ccc(C)cc2C)c(=O)c2cc(F)c(N3CCCC3)cc21 | 19%
Cc1ccc(C(=O)N/N=C/c2c(O)ccc3ccccc23)cn1 | -19%
O=C(COC(=O)Cc1ccccc1[N+](=O)[O-])NNC(=O)c1ccc([N+](=O)[O-])cc1 | 11%
CCC(C)NS(=O)(=O)c1ccc(-c2csnn2)s1 (stereo not given) | -6%
C[C@H](NC(=O)OC(C)(C)C)C(=O)N/N=C/c1ccc2nccnc2c1 | -1%
CCCC1CCC(c2ccc(/C(N)=N/O)cc2)CC1 (stereo not given) | 1%
CCOC(=O)C1=C(C)NC(=O)NC1c1c(O)ccc2ccccc12 (stereo not given) | -5%
O=C(Cc1ccc(S(=O)(=O)N2CCOCC2)s1)N1CCN(S(=O)(=O)c2ccccc2F)CC1 | 18%
CCOC(=O)N1CCC(NC(=O)CN2C(=O)COc3ccc(C(C)(C)C)cc32)CC1 | -13%
Cc1ccc(CSCCNS(=O)(=O)c2ccc(C)cc2)cc1 | -15%
COc1ccc(N(C(=O)C(C)C)S(=O)(=O)c2cccc([N+](=O)[O-])c2)cc1 | 16%
CCOc1ccc(CCNC(=O)Cn2nnc(-c3ccc(C(F)(F)F)cc3)n2)cc1OCC | 4%
CCOc1ccc(-c2cn(-c3cccc(SC)c3)c(=O)[nH]2)cc1 | -5%
CC(C)NCC(O)COc1ccccc1-n1cccc1 (stereo not given) | 3%
CCN(CC(=O)NCc1cccs1)C(=O)c1cccc(S(=O)(=O)N(C)C)c1 | -6%
Cc1[nH]c(=O)[nH]c(=O)c1/C=N/NC(=O)[C@H](C)N | -3%

Already shown: an excerpt of the list.
SMILES | VDR inhibitor
CCOC(=O)C1=C(C)NC(=O)NC1c1c(O)ccc2ccccc12 (stereo not given) | -5%
O=C(Cc1ccc(S(=O)(=O)N2CCOCC2)s1)N1CCN(S(=O)(=O)c2ccccc2F)CC1 | 18%
CCOC(=O)N1CCC(NC(=O)CN2C(=O)COc3ccc(C(C)(C)C)cc32)CC1 | -13%
Cc1ccc(CSCCNS(=O)(=O)c2ccc(C)cc2)cc1 | -15%

(next part)
SMILES | VDR inhibitor
COc1ccc(OC)c(C(=O)CSc2nnc(-c3cccs3)n2C)c1 | 1%
Cc1ccc(C(=O)NCCCNC(=O)c2ccccc2F)cn1 | -3%
CCC(=O)N1CCc2cc(Br)cc(S(=O)(=O)CCC(=O)NCc3ccc(F)cc3)c21 | -12%
COc1ccc(S(=O)(=O)NC2(C(F)(F)F)N=C3SCCN3C2=O)cc1 (stereo not given) | 14%
CCCS(=O)(=O)N1CCC(C(=O)NCCN2CCC(Cc3ccccc3)CC2)CC1 | 15%
OCCN1CCN(Cc2cc(Br)cc(Br)c2O)CC1 | -14%
COc1ccc(CN2CCN(CC=C(C)C)C(CCO)C2)cc1Cn1cccn1 (stereo not given) | -19%
Cc1cnc(NC(=O)CN2CCN(c3ccccc3F)CC2)s1 | -8%
OCC#CCSc1nnc(-c2ccccc2Br)o1 | -3%
CS(=O)(=O)c1ccc(Cl)c(NC(=O)COC(=O)/C=C/c2cnc3ccccc3n2)c1 | 1%
CC1CCC2(CC1)NC(=O)N(CC(=O)c1ccc(Cl)s1)C2=O (stereo not given) | 6%
CN(C)c1nc(N(C)C)nc(N2CC(=O)N(c3ccccc3)C2=N)n1 | 5%
CCOCCCNc1nc2c(C)cccn2c(=O)c1/C=C1\SC(=S)N(C(C)CC)C1=O (stereo not given) | 5%
CCn1ncc(S(=O)(=O)NCc2ccccc2Cl)c1C | -17%
COc1ccc(NC(=O)Nc2c[nH]c(=O)[nH]c2=O)cc1OC | -18%
Cc1ccc(C(=O)CSc2nc(C)cc(C)c2C(=O)Nc2cccc(C)c2)cc1 | -7%
Cc1ccc2[nH]c(=O)c3cc(C(=O)NC(C)C)sc3c2c1 | -10%
CCCc1c(NC(=O)Nc2ccc(F)cc2)cnn1-c1ccc(Cl)cc1 | -13%
O=C(Nc1cc(C(F)(F)F)ccc1N1CCOCC1)c1ccc(Cl)nc1 | -17%
Cc1ccc(CCC(=O)Nc2ccc(CC(=O)O)cc2)o1 | 79µM*
CC(C)n1ncc2c(C(=O)N3CCN(Cc4ccc(Cl)s4)CC3)cc(C3CC3)nc21 | -22%
CN1CCN(S(=O)(=O)c2ccc3c(c2)OCCO3)CC1 | 18%
N#C/C(=C\c1cccnc1)C(=O)Nc1ccc(SC(F)F)cc1 | u
CCCCCCc1ccc(OC(=O)c2ccncc2)cc1 | 7%
O=C(Nc1cccc(Cl)c1)Nc1ccc2c(c1)OCO2 | 7%
COc1ccc(S(=O)(=O)CCC(=O)Nc2c(C)cccc2C)cc1 | u
CCC1(CC)NC(=O)N(CC(=O)Nc2cccc3ccccc23)C1=O | -16%
Cc1ccccc1-n1c(-c2cccnc2)n[nH]c1=S | -10%
CCOC(=O)Cn1c2ccc(C)cc2c2nc(C)sc21 | u
O=C(COc1ccccc1Cl)N1CCCC1 | -7%
CC1(C)CC(=O)C2=C(C1)N(CC1CCCO1)C(=O)C2(NC(=O)c1cccnc1)C(F)(F)F (stereo not given) | -11%
CCn1c(CNc2ccc(OC)cc2)nnc1SCC(=O)c1ccc(OC)cc1 | 2%
CC(=O)Nc1ccc(C(=O)OCC(=O)Nc2ccc(S(=O)(=O)N3CCOCC3)cc2)cc1 | -7%
CCNc1ncc2nc(C)c(=O)n(CCC#N)c2n1 | 1%
CC(=O)Nc1ccc(NC(=O)COC(=O)c2c3c(nc4ccccc24)CCN(Cc2ccccc2)C3)cc1 | u
O=C(COc1ccccc1)Nc1ccc(S(=O)(=O)Nc2ncccn2)cc1 | 24%
COc1ccc(C(=O)Nc2ccc(N3CCCC3)cc2)cc1 | -7%
CCOc1ccc(OCc2ccc(C(=O)O)o2)cc1 | -9%
CC1CCCCC12NC(=O)N(CC(=O)Nc1ccccc1N1CCOCC1)C2=O (stereo not given) | -5%
F[B-](F)(F)COCc1ccccc1Br | -24%

Part of the list above, as a markdown table.
| molecule | VDR inhibitor |
| --- | --- |
| CS(=O)(=O)N(CC(=O)N1CCN(Cc2ccccc2)CC1)Cc1ccccc1 | -9% |
| Cc1ccc(CS/C(Nc2ccccc2C)=C(\C#N)C(=O)NCc2ccco2)c(C)c1 | 11% |
| CCOC(=O)c1c(C)[nH]c(C(=O)NCC(c2ccco2)N2CCCCC2)c1C (stereo not given) | -2% |
| COc1ccc(Cn2c(=O)[nH]c3cc(C(=O)NCCc4ccc(S(N)(=O)=O)cc4)ccc3c2=O)cc1 | 9% |
| CCn1cc(S(=O)(=O)c2ccc(C)cc2C)c(=O)c2cc(F)c(N3CCCC3)cc21 | 19% |
| Cc1ccc(C(=O)N/N=C/c2c(O)ccc3ccccc23)cn1 | -19% |

(continued)
SMILES | VDR inhibitor
O=S(=O)(c1ccccc1)N1CCC2(CCN(c3ccncc3)CC2)CC1 | 1%
O=C1C2CC=C(Cl)CC2C(=O)N1CNc1ccccn1 (stereo not given) | -6%
O=C(COC(=O)C1=COCCO1)Nc1ccc([N+](=O)[O-])cc1C(F)(F)F | -10%
CCOc1ncccc1C(=O)N(C)CC1COc2ccccc2O1 (stereo not given) | 7%
COc1ccc(CCC(=O)NCc2cn3ccccc3n2)cc1 | -9%
NC(=S)NNC(=O)c1ccccc1 | -25%
CC(C(c1cccs1)c1c(N)n(C)c(=O)n(C)c1=O)[N+](=O)[O-] (stereo not given) | 0%
CCOC(=O)c1cc(CC)sc1NC(=O)CC1Sc2ccc(C(F)(F)F)cc2NC1=O (stereo not given) | -12%
O=C1CC(c2ccccc2)CC(O)=C1C=NCCN1CCN(Cc2ccccc2)CC1 (stereo not given) | 7%
Cc1cc(C)cc(NC(=O)c2nnn(Cc3cc(C)ccc3C)c2N)c1 | -15%
FC(F)(F)c1cccc(NC(=S)N2CCN(c3ccccn3)CC2)c1 | 6%
COc1ccc(C(=O)Nc2ccc(N3CCOCC3)cc2)cc1S(=O)(=O)N1CCOCC1 | 8%
Cc1nc2cccnc2n1C1CCN(C(=O)Nc2ccc(Cl)cc2)CC1 | 5%
Cc1ccc(C)c(S(=O)(=O)N2CCCOC2CNC(=O)C(=O)NCCC2=CCCCC2)c1 (stereo not given) | 8%
COc1cccc(N2CCN(c3ccc4nnc(CCC(=O)Nc5ccccn5)n4n3)CC2)c1 | 4%
CCOC(=O)C1CCN(C(=O)Nc2ccc3nc(-c4ccco4)c(-c4ccco4)nc3c2)CC1 | u
CSc1nc2ccc(NC(=O)COc3ccccc3F)cc2s1 | 4%
CCCCN(CCCC)CCCNC(=O)c1cc(-c2ccc(Cl)s2)nc2ccccc12 | -7%
CCOC(=O)[C@@H]1[C@H]2COc3ccc(Br)cc3[C@H]2N2C(=O)N(c3ccc(OC)cc3)C(=O)[C@]12C | -6%
Cc1cc(C(=O)OCC(=O)NCc2ccc(Cl)cc2Cl)c(C)o1 | 6%
O=C(/C=C/c1cccs1)c1ccc(Br)cc1 | 50µM*
CC(=O)Nc1ccc(NC(=O)C2CCCCN2S(=O)(=O)c2ccc(C(C)(C)C)cc2)cc1 (stereo not given) | -9%
CCCn1c(=O)c(C(=O)NCc2ccco2)c(O)c2ccccc21 | -5%
Cc1cccc(C(=O)N/N=C/c2ccc(OCC(=O)N3CCCCC3)cc2)c1 | 6%
COc1ccc(CCNc2ncnc3c2oc2ccccc23)cc1OC | 0%
CCOc1ccc(CNS(=O)(=O)c2c(C)nc3sccn3c2=O)cc1OC | -2%
Cc1cccc(OCC(=O)Nc2ccc(-c3nc4ccccc4o3)cc2)c1C | -10%
Cc1ccc(CN(Cc2ccco2)C(=O)COc2cc(C)c(Cl)c(C)c2)cc1 | -4%
O=C(NCc1cccnc1)c1cccc(NC(=O)c2ccco2)c1 | -9%
Cn1c(=O)c(C(=O)CN2CCCCC2)c(N)n(Cc2ccccc2)c1=O | 13%

Overlap with the part before: 3 compounds, then new ones.
SMILES | VDR inhibitor
Cc1ccc(CN(Cc2ccco2)C(=O)COc2cc(C)c(Cl)c(C)c2)cc1 | -4%
O=C(NCc1cccnc1)c1cccc(NC(=O)c2ccco2)c1 | -9%
Cn1c(=O)c(C(=O)CN2CCCCC2)c(N)n(Cc2ccccc2)c1=O | 13%
COc1ccc(NC(=O)CN(C)C(=O)C2=NN(c3ccccc3)C(=O)CC2)cc1 | 20%
CC(=O)Nc1ccc(C(=O)OCC(=O)NCc2ccc3c(c2)OCO3)cc1 | -6%
CC1(C)CC(=O)c2sc(NS(=O)(=O)Cc3ccccc3)nc2C1 | u
O=C1CCCN1CCCNc1ccc2nnc(CCC(=O)N3CCN(c4ccccc4)CC3)n2n1 | 4%
O=C(CSc1ccccc1)Nc1ccc(S(=O)(=O)Nc2ncccn2)cc1 | 5%
O=c1ccc2cc(S(=O)(=O)N3CCN(c4ccccc4)CC3)ccc2[nH]1 | 5%
CC(=O)c1cccc(NC(=O)C2C3C=CC(C3=C(c3ccccc3)c3ccccc3)C2C(=O)O)c1 (stereo not given) | -15%
CCOc1ccc(-n2c(=O)c3sccc3n(CC(=O)NCc3ccco3)c2=O)cc1 | 9%
COc1ccc(CCC(=O)OCC(=O)N(C)c2c(N)n(Cc3ccccc3)c(=O)[nH]c2=O)cc1 | 4%
Cc1ccc(CNC(=O)CCc2nc3cccnc3n2Cc2ccccc2)cc1 | -3%
COc1ccc(S(=O)(=O)NCc2cccnc2)cc1NC(=O)c1ccc(Cl)cc1 | -15%
C/C(=N/NS(=O)(=O)c1ccc(Cl)cc1)c1ccncc1 | -19%
CCN(CC)CCN1C(=O)C(=O)/C(=C(/O)c2ccc(OC(C)C)cc2)C1c1ccncc1 (stereo not given) | 18%
COc1ccc(OCC(=O)N2CCN(S(=O)(=O)c3ccc(Cl)cc3)CC2)cc1 | 8%
CC(C)(C)NC(=O)NC(=O)CN1CCN(Cc2ccccc2)CC1 | -3%
CC(C)CC(=O)Nc1nnc(CCc2ccccc2)s1 | -7%
Cc1ccccc1CSc1ccc(S(=O)(=O)N2CCCC2)cn1 | -15%
O=C(O)c1ccc(N/N=C/c2cccc(C(F)(F)F)c2)cc1 | -16%
Cc1cccc(C)c1-n1c(SCC(=O)NCc2ccco2)nc2ccccc2c1=O | -2%
Cc1nc2ccccc2c(C)c1CC(=O)N(C)CC(=O)Nc1cccc(F)c1 | -4%
CC1=CC(=O)CC(C)(C)[C@@]1(O)/C=C/[C@@H](C)O[C@@H]1O[C@H](CO)[C@@H](O)[C@H](O)[C@H]1O | -9%
COc1ccc(CCNC(=O)CCCCCNc2nc(=S)[nH]c3ccccc23)cc1OC | -12%
Cc1cc(NC(=O)CS(=O)(=O)Cc2ccccc2)no1 | 1%
COCCCNC(=O)COc1cc2c(c3oc(=O)c(C)c(C)c13)CCC(C)(C)O2 | 9%
